# Screening results from PubChem.
# VDR inh: inhibitors of human vitamin D receptor | Potency, µM, without a hit: max response, negative = inhibition, hits mostly inhibitors | AID 504847 | VDR-SRC2-3 peptide fluorescence polarization, 2 h | hit rate 0.93% among 400,000; active = well fitted inhibition curve with a large enough effect; inconclusive = small, poorly fitted or top-dose-only effect, or another doubt; inactive = no such curve, though single readings can be large or run the other way; note: series mostly up to about 120 µM
# Target sequence (P11473 whole entry, looked up): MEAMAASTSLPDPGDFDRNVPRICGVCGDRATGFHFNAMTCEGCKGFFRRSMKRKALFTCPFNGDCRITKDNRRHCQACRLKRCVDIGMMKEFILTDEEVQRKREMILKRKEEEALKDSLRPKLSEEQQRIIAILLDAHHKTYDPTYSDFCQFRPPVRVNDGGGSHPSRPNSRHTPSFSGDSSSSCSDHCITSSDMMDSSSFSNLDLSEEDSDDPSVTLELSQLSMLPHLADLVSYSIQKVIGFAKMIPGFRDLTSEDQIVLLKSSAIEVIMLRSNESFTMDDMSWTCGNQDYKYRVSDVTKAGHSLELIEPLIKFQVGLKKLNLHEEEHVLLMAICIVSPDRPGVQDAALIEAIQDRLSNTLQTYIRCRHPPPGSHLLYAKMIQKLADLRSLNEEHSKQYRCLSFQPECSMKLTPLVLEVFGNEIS
#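 Fluorescence polarization assay of small-molecule disruption of VDR binding to coregulator peptide SRC2-3. Compounds and controls pin-transferred, then read after 2 h incubation at ambient room temperature.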
# Numbers without * were called inactive; ? = inconclusive; & = joins results of further samples; [ ] = another dose, or the depositor's remark. % is set by controls: 0 for no effect and ±100 for the full control effect; potency is the fitted concentration of half-maximal effect.
smiles	VDR inh
Cc1c(NC(=O)C2CCCNC2=O)c(=O)n(-c2ccccc2)n1C (stereo not drawn)	-8%
S=C(NCc1ccccc1)N1CCn2cccc2C1c1cccnc1 (stereo not drawn)	-1%
COc1ccc(NC(=O)c2n[nH]c(=O)c3ccccc23)cc1S(=O)(=O)N1CCCCC1	-10%
COc1ccccc1N1CCN(C(=O)C2CCN(S(=O)(=O)c3cn(C)cn3)CC2)CC1	5%
COC1(OC)C=CC(=O)C=C1NC(=O)c1ccccc1OC(C)=O	-7%
CC(C)C(=O)Nc1nnc(SCC(=O)Nc2ccc3c(c2)OCCO3)s1	-14%
CC(C)c1cc(C(F)(F)F)n2nc(C(=O)Nc3ccc(-n4cnnn4)cc3)cc2n1	-27%
O=c1[nH]cccc1-c1nc2ccccc2n1Cc1ccc(Cl)cc1	0%
Cc1cc(C)n(CCc2nc3c4ccccc4n(CC#N)c(=O)n3n2)n1	-5%
Cc1cccc(C2C3=C(CCCC3=O)N=C3c4ccccc4C(=O)C32)c1 (stereo not drawn)	-24%
CC1=CN2C(=N)/C(=C/c3cn(CCCOc4ccccc4C)c4ccccc34)C(=O)N=C2S1	-21%
CC(C)c1ccc(NC2CCCN(C(=O)CCN3CCCC3=O)C2)cc1 (stereo not drawn)	-4%
Cc1ccc(C(=O)O)cc1NC(=S)NC(=O)c1ccc(-c2ccc(Cl)cc2)o1	-12%
CC1CCc2sc(C(=O)N/N=C/c3ccc([N+](=O)[O-])cc3)cc2C1 (stereo not drawn)	17%
Cc1onc(-c2c(F)cccc2Cl)c1C(=O)N[C@@H]1C(=O)N2[C@H]1SC(C)(C)[C@H]2C(=O)O	-3%

# Some of these compounds in order of their number in VDR inh, falling.
Molecule	VDR inh
Cc1cc(C)n(CCc2nc3c4ccccc4n(CC#N)c(=O)n3n2)n1	-5%
Cc1c(NC(=O)C2CCCNC2=O)c(=O)n(-c2ccccc2)n1C (stereo not drawn)	-8%
Cc1cccc(C2C3=C(CCCC3=O)N=C3c4ccccc4C(=O)C32)c1 (stereo not drawn)	-24%

# Continuation:
smiles	VDR inh
CCOC(=O)C1=C(Cn2cnc3ccccc32)NC(=O)NC1c1ccc(Cl)cc1 (stereo not drawn)	?
CCOC(=O)C1=C(O)/C(=C\c2ccc(CNS(=O)(=O)c3ccc(Br)cc3)o2)N=C1C	-21%
CSc1sc(-c2ccnc(SCC(=O)C(C)(C)C)n2)c2c1C(=O)CC(C)(C)C2	-14%
CC(C)(C)C1CCc2c(sc(NC(=O)Cn3nnc(-c4cccc(C(F)(F)F)c4)n3)c2C#N)C1 (stereo not drawn)	-2%
COc1ccc(CNC(=S)NCc2ccc(OC)cc2)cc1	1%
Cc1cc2c(cc1C)N(CC(=O)N1CCCC1)C(=O)CC(c1ccccc1)=N2	-7%
Oc1ccc(Cl)cc1C1=NNC(c2cccs2)C1 (stereo not drawn)	?
NC(=O)c1cc(N2C(=O)C=CC2=O)ccc1Cl	20µM*
C=CCNC(=S)NNC(=O)c1cc(-c2cccnc2)nc2ccccc12	-8%
COc1ccc(S(=O)(=O)N(C)c2ccc(C(=O)N3CCOCC3)cc2)cc1	2%
O=C(Nn1cnc2ccccc2c1=O)c1ccccc1[N+](=O)[O-]	2%
CCN1CCN(C(=O)c2cc3c(=O)oc4ccc(C)cc4c3s2)CC1	-19%
COc1ccc(CCNC(=O)CCS(=O)(=O)c2cc3c(cc2Cl)NC(=O)CO3)cc1OC	-3%
COc1ccccc1OCCSc1nc2ccc([N+](=O)[O-])cc2s1	4%
O=C1CCc2cc(S(=O)(=O)NCc3ccc(Cl)cc3)cc3c2N1CC3	-18%&28%

# Next part
smiles	VDR inh
O=C(Oc1ccc2ccc(=O)oc2c1)c1ccc([N+](=O)[O-])cc1	-18%
COc1ccc(CCn2c(-c3cc([N+](=O)[O-])cc([N+](=O)[O-])c3)nc3nc4ccccc4nc32)cc1OC	3%
O=C(NC(=O)c1ccccc1)Nc1ccccc1O	22%
CC1CC(C)(C)Nc2ccc(N=O)cc21 (stereo not drawn)	-28%
Cc1ccc(C(C(=O)NCC2CCCO2)N(C(=O)c2snc(C(N)=O)c2N)c2ccccc2)o1 (stereo not drawn)	-11%
C=CCN(CC(=O)NCc1ccc(OC)cc1)C(=O)c1csnn1	1%
CC(C)(C)c1cc(C2=CSC3=NCCN23)cc(C(C)(C)C)c1O	?
O=C(CCS(=O)(=O)c1ccccc1)Nc1ccc(S(=O)(=O)Nc2ncccn2)cc1	-4%
Cc1cc(C)c2sc(N(CCCN(C)C)C(=O)COc3ccc(Cl)cc3)nc2c1	13%
COCCCN(CCCN)Cc1ccco1	0%
O=S(=O)(O)c1cc(O)c2c(O)c(N=Nc3cc(Cl)ccc3O)c(S(=O)(=O)O)cc2c1	?
Cc1ccc(NC(=O)CCc2c[nH]c3ccccc23)nc1	14%
CCN1C(=O)c2ccccc2Sc2ccc(C(=O)NCCC(C)C)cc21	0%
NC(Cc1ccc2nsnc2c1)C(=O)O (stereo not drawn)	56%[activator]
CC(=O)Nc1ccc(CN2CCN(C3CCCC3)C(CCO)C2)cc1 (stereo not drawn)	11%

# Next section.
smiles	VDR inh
N#Cc1ccccc1	-3%
COc1ccccc1COC(=O)CN1C(=O)NC2(CCCCC2C)C1=O (stereo not drawn)	3%
Cc1ccnc(NS(=O)(=O)c2ccc(NC(=O)C(C)(C)C)cc2)n1	-20%
O=C(CCS(=O)(=O)c1ccccc1)N1CCCc2ccccc21	-21%
COc1ccc(Cl)c2sc(N3CCN(C(C)=O)CC3)nc12	0%
Oc1[nH]c2ccccc2c1/C=N/c1nccs1	0%
CCOc1ccccc1CNC(=O)c1cc(-c2ccc(Cl)s2)nc2ccccc12	6%
CCCCOc1ccc(-c2c(C(=O)Nc3ccccc3)c(C)[nH]c(=S)c2C#N)cc1	-12%
CCOc1ccc(NC(=O)CSc2ccc(-c3ccccn3)nn2)cc1	-20%
COc1ccc(C)cc1NC(=O)Cn1c(=O)nc(-c2ccccc2F)c2cc(Cl)ccc21	-5%
NCCC[C@@H](CC(=O)N[C@@H]1CCNC[C@H]1C(=O)N[C@H](CC(=O)N[C@@H](CCC(=O)O)CC(=O)O)Cc1ccccc1)NC(=O)C[C@H](CO)NC(=O)[C@@H]1CCCC[C@H]1N	5%
CSc1cccc(NC(=O)CN(C)S(=O)(=O)c2ccc(C)cc2)c1	6%
COc1ccc(C(=O)N/C(=C\c2ccc(OC)c(OC)c2)C(=O)N2CCCCC2)cc1	-11%
Cc1cccc(CSc2ncc(Cl)c(C(=O)Nc3sc4c(c3C(N)=O)CCCC4)n2)c1	3%
Cn1c(SCc2ccccn2)nnc1-c1ccncc1	-10%

# Remaining list, next part
smiles	VDR inh
CC1SCC(NC(=O)c2ccccc2Cl)CS1 (stereo not drawn)	-6%
CCc1nnc(NC(=O)C2CCCN(C(=O)c3ccoc3)C2)s1 (stereo not drawn)	-20%
COc1ccc(CNC(=O)Cn2c(=O)c3cccn3c3cccnc32)cc1	10%
COCCNC(=O)CN(C(=O)Cn1nnc2ccccc21)c1cccc(C)c1C	4%
Cc1onc(-c2ccccc2Cl)c1C(=O)OCC(=O)N1CCCc2ccccc21	2%
Cc1ccc(C)c(OCC(=O)NNC(=O)c2ccc(NC(=O)C3CC3)cc2)c1	11%
CC1=NN(c2ccc(C)c(C)c2)C(=O)/C1=C/c1ccc2c(c1)n(C)c(=O)n2C	?
COc1ccc(C(=O)NCc2nnc(SCC(=O)Nc3cccc(C(F)(F)F)c3)o2)cc1OC	-2%
O=c1oc(-c2ccccc2NS(=O)(=O)c2ccc3ccccc3c2)nc2ccccc12	-10%
COc1ccc(S(=O)(=O)NCCC(=O)N2CCCN(C)CC2)cc1	-6%
Fc1ccc2cc(CCO[C@H]3CCCCO3)ncc2c1	-4%
CCOC(=O)C(C)N1C(=O)S/C(=C\c2ccc(-c3ccccc3C(=O)O)o2)C1=O (stereo not drawn)	-18%
O=S1(=O)CCC(NC(=S)NCCNC(=S)NC2CCS(=O)(=O)C2)C1 (stereo not drawn)	?
O=C(NCc1ccccc1)C1=C[C@@H](c2ccc3c(c2)OCO3)C[C@@H](OCc2ccc(CO)cc2)O1	0%
O=C(Nc1cccc([N+](=O)[O-])c1)N1CCc2ccccc2C1	5%

# An excerpt of these results, field by field.
compound: Cc1ccc(C)c(OCC(=O)NNC(=O)c2ccc(NC(=O)C3CC3)cc2)c1
  VDR inh: 11%

compound: CC1=NN(c2ccc(C)c(C)c2)C(=O)/C1=C/c1ccc2c(c1)n(C)c(=O)n2C
  VDR inh: ?

compound: COc1ccc(C(=O)NCc2nnc(SCC(=O)Nc3cccc(C(F)(F)F)c3)o2)cc1OC
  VDR inh: -2%

compound: O=c1oc(-c2ccccc2NS(=O)(=O)c2ccc3ccccc3c2)nc2ccccc12
  VDR inh: -10%

# New compounds follow:
smiles	VDR inh
CC(C)N(O)C(=O)NC(C)(C)C	-13%
CC1CCN(CCNC(=O)C2CCCN(S(=O)(=O)c3cccc4nonc34)C2)CC1 (stereo not drawn)	21%
NC1=NC(=O)/C(=C/c2cc(Br)c(O)c(Br)c2)S1	-12%
CC(=O)NC1=C(NC2CCS(=O)(=O)C2)C(=O)c2ccccc2C1=O (stereo not drawn)	?
CCN(CC)CCCNc1nc(N)c([N+](=O)[O-])c(N2CCCCCC2)n1	-10%
Nc1ccc(NC2C[C@@H](C(=O)O)NC2=O)cc1 (stereo partly drawn)	1%
CCOC(=O)/C(C#N)=C/c1cn(CCC(=O)O)nc1-c1ccccc1	-29%
O=C(NC(=S)NNC(=O)c1cccs1)c1ccccc1	-11%
CN1CCN(C(c2ccc(F)cc2)c2nnnn2Cc2cccs2)CC1 (stereo not drawn)	12%
COc1ccc(S(=O)(=O)N2CCC(NC(=O)C(Cc3cccc(OC)c3OC)NC(C)=O)CC2)cc1 (stereo not drawn)	3%
Cc1cc(C)nc(SCc2ccc(C(=O)N/N=C/C3CCCCC3)cc2)n1	-9%
COC(=O)Cc1ccc(NC(=O)c2ccc(NC(=O)c3ccco3)cc2)cc1	17%
O=C(/C=C/c1cccc(C(F)(F)F)c1)N1CCN(c2ccccn2)CC1	-22%
CCn1c(-c2ccccc2Cl)nn(CC(=O)Nc2ccccc2C)c1=S	5%
COc1ccc(C(=O)N2CCCC(C(=O)O)C2)c2ccccc12 (stereo not drawn)	6%

# Later entries:
smiles	VDR inh
CCc1ccccc1Nc1nn2c(=O)c3ccc(C(=O)NC4CCCCC4)cc3nc2s1	1%
O=C(c1c(F)cccc1Cl)N1CCN(S(=O)(=O)c2ccc3c(c2)OCCCO3)CC1	-9%
CCOC(=O)c1ccc(-n2c(CN(CC)CC)nc3ccc([N+](=O)[O-])cc3c2=O)cc1	?
N#Cc1cn(-c2ccccc2)nc1C(=O)c1ccccc1	4%
COc1ccccc1CCc1nnc(CCC(=O)NC(C)Cc2ccsc2)o1 (stereo not drawn)	-6%
Nc1nc2[nH]c(=O)cnc2c(=O)[nH]1	1%
Cc1ccc(-c2cc(C(=O)N/N=C/c3ccccc3)n[nH]2)o1	1%
N/C(=N\OC(=O)c1ccc(Cl)c([N+](=O)[O-])c1)c1ccccc1	-5%
Cc1ccc2nc(NC(=O)c3ccc(Cn4cc(Cl)cn4)o3)sc2c1	11%
COc1ccc(NC(=O)CC2Oc3ccccc3NC2=O)cc1 (stereo not drawn)	-10%
COc1cccc(Cn2c(=O)c(-c3cc(F)cc(F)c3)nc3cnc(N4CCOCC4)nc32)c1	-7%
Cc1nc2ccc(S(=O)(=O)NC(C(=O)N3CCCC3)C(C)C)cc2s1 (stereo not drawn)	-30%
CCCN(Cc1cccs1)C(=O)Nc1cc(Cl)ccc1C	11%
O=C(N/N=C/c1ccc[nH]1)c1ccccc1[N+](=O)[O-]	2%
O=C(CCCOc1ccccc1)N1CCN(S(=O)(=O)c2cccs2)CC1	-5%

# Continued:
smiles	VDR inh
CCc1c(C)nc(SCC(=O)Nc2nc(-c3ccc(OC)cc3)cs2)[nH]c1=O	4%
Cc1cccc(/C=N\Nc2nnc(-c3ccccc3)c(=O)[nH]2)c1	2%
Cc1cc(O)c2c(c1O)C(=O)C(O)=C(O)C2=O	8.9µM*
COc1cc(C(=O)NCc2ccc(C(=O)NCC(OC)OC)cc2)cc(OC)c1OC	-9%
Cc1ccc(NC(=O)C(c2ccccc2)C2CCCC2)cc1 (stereo not drawn)	-7%
CC(C)[C@H](NC(=O)N1CCn2c1nc1ccccc12)C(=O)NCc1ccc(F)cc1	15%
Cc1ccccc1CCNC(=O)Cn1nc(C)c2c(C)n(-c3ccccc3)nc2c1=O	11%
O=C(COC(=O)c1ccc2c(c1)OCCO2)Nc1cc(Cl)ccc1Cl	4%
Cc1ccc(F)cc1NC(=O)Cc1nn(C)c(=O)c2ccccc12	5%
CCOC(=O)c1cccc(NC(=O)[C@H](CSCc2ccccc2)N2Cc3ccccc3C2=O)c1	-12%
CCOC(=O)c1c(C)[nH]c(C)c1S(=O)(=O)NCC1CCN(Cc2ccc(C)cc2)CC1	-10%
C=CCNc1nc(Nc2ccc(OC)cc2)nc(OC)n1	-2%
COC1=CC(=O)c2c(ccc3ncnc(N)c23)C1=O	?

# Compounds above that have bromine:
smiles	VDR inh
CCOC(=O)C1=C(O)/C(=C\c2ccc(CNS(=O)(=O)c3ccc(Br)cc3)o2)N=C1C	-21%
NC1=NC(=O)/C(=C/c2cc(Br)c(O)c(Br)c2)S1	-12%

# These rows are one share of the data; rates above refer to the full screens.
